miR-21 FLuc – miR-21 reporter, rising signal; HeLa miR-21 FLuc reporter, luciferase, 48 h; Potency, µM (titrated, usually from 38.3 µM), inactives show at the highest dose reporter change, positive = more light; 340,000 tested, under 10 active; AID 2288; active = well fitted rising curve with a large enough effect; inconclusive = small, poorly fitted or top-dose-only effect; inactive = no such curve, though single readings can be large or run the other way;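 further: % of control where 0% means no effect; miR-21 action dims this reporter so a rising signal means less miR-21 action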
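HeLa miR-21-FLuc reporter line, endogenous miR-21; 2000 cells/well in DMEM/10% FBS; compound titration up to ~40uM final, 48 h, 37 degree Celsius; luciferase detection reagent, 15 min lysis, CCD luminescence.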
GLA inh pH 4.5 – inhibitors of human alpha-galactosidase A at pH 4.5. P06280. purified enzyme, 4-MU-alpha-Gal fluorescence, pH 4.5. activity change, negative = inhibition, % at 105 µM. 230,000 tested, under 10 active. AID 1467; inconclusive = small, poorly fitted or top-dose-only inhibition, or a rising curve; inactive = flat fitted curve, though single readings scatter; no compound was filed as active;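 further: 0% = full activity with enzyme and -100% = basal without enzyme; dose as in the result columns while the protocol names 77 µM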
Target sequence (P06280 whole entry, looked up): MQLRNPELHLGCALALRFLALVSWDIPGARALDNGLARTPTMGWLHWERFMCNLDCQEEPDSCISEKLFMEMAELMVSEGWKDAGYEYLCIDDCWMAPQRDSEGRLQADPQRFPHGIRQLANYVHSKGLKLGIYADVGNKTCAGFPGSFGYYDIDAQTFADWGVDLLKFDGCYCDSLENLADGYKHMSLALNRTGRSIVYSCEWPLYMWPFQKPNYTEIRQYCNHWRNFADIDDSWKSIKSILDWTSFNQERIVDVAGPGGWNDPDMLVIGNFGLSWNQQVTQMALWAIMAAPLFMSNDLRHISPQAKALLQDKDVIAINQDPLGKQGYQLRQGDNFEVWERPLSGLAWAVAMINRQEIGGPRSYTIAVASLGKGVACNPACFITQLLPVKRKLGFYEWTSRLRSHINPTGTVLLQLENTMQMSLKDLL
Rango complex inh – Rango-importin beta binding inhibition; AID 540263; Q14974; hit rate 0.031% among 340,000; Potency, µM (titrated, usually from 92.2 µM), inactives show at the highest dose inhibition of complex formation; Rango CFP/YFP FRET sensor + importin beta, 45 min; active = rising FRET ratio curve, often small or poorly fitted; inconclusive = mostly compound fluorescence or quenching in the first reads; inactive = flat curves in all reads;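 further: potency means the concentration at half of the fitted maximal effect; 0% = DMSO wells and 100% = buffer wells lacking importin beta; nearly all actives have a fitted effect of over 15% in size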
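FRET biosensor (snurportin 1 IBB flanked by EYFP and cerulean), 50 nM, with compound 5 min, then 0.125 microM importin beta in PBS, 1 mM DTT, 0.02% Tween-20, 0.1% BSA. CFP/YFP ratio read after 45 min at room temperature; pre-read flags interference.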
Rango dissoc inh – inhibitors of RanGTP-induced Rango-importin beta complex dissociation. Potency, µM (highest dose often 46.1 µM), for inactives: at the highest dose activity change, negative = inhibition. hit rate 0.071% among 340,000. Biochemical FRET Rango-importin beta, RanGTP-induced dissociation. AID 540253; active means falling FRET ratio curve, often poorly fitted, with flat reads before Ran was added; inconclusive means other falling curves, or compound fluorescence or quenching; inactive means flat or rising ratio curve;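 further: potency means the concentration at half of the fitted maximal effect; % of control where 0% means no effect; nearly all actives have a fitted effect of over 45% in size; -100% = wells without RanGTP and RCC1; the record marks most hits as doubtful in a second field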
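Rango/importin beta premix (0.1/0.25 uM final), PBS + 1 mM DTT + 0.02% Tween-20 + 0.1% BSA; cpd 5 min RT; FRET pre-read; + RanGTP-RCC1 (0.6 uM Ran, 2 mM GTP, 0.2 uM RCC1); 45 min RT; FRET post-read, ex 430, em 486/530 nm.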
Starred values were filed as active, the others as inactive; ? = inconclusive; . = no result given; & = joins results of further samples; [ ] = remark or other dose. Only part of the results is shown. The share of hits here may be higher or lower than overall.

SMILES	miR-21 FLuc	GLA inh pH 4.5	Rango complex inh	Rango dissoc inh
COc1cc(C(=O)NNC(=O)C2CC2)cc(OC)c1OC	9%	.	?	1%
O=C(O)c1cc(-c2ccc(Cl)cc2)n(-c2ccccc2)n1	-6%	-5	-1.1%	7%
O=C(CSc1nnc(-c2c[nH]c3ccccc23)o1)N1CCCCC1	-55%	-5	7.2%	10%
Cc1c([N+](=O)[O-])c([N+](=O)[O-])nn1CC(=O)NCc1cccnc1	0%	-8	-1.5%	2%
COCCN(C(=O)CC1C(=O)NCCN1Cc1ccc(-c2ccccc2)cc1)C(C)C (stereo not drawn)	-2%	9	0.0%	16%
Cc1nc(C(=O)Nc2ccccc2)sc1C1(C)CC(c2cccnc2)=NO1 (stereo not drawn)	-26%	3	?	11%
Nc1cccc(C(=O)NCCNC(=O)c2cccc(N)c2)c1	0%	.	-1.5%	6%
O=C(Nn1cnnc1)c1ccccc1F	1%	.	?	-27%
CSCCCNC(=O)c1ccccc1OC1CCN(S(C)(=O)=O)CC1	-2%	-8	0.3%	2%
CCOC(=O)C(CC)(CC)C(=O)/C=C/c1cccc(Br)c1	.	.	0.5%	14%
CCN(c1ccccc1)S(=O)(=O)c1ccc(Cl)c(NC(=O)CSc2nncs2)c1	-2%	-13	-2.3%	-17%
C=C(C)Cn1c(N2CCN(c3ccc(OC)cc3)CC2)nc2c1c(=O)n(C)c(=O)n2C	23%	3	-0.9%	8%
CC(=O)Nc1ccc(NC(=O)C2CCCN(S(=O)(=O)c3ccc(-n4cnnn4)cc3)C2)cc1 (stereo not drawn)	-3%	.	1.2%	-11%
O=C(c1ccoc1)N1CCC2(CC1)Oc1ccc(Cl)cc1C(=O)C21CC(c2ccccc2)=NO1 (stereo not drawn)	8%	0	-4.2%	12%
O=C(Nc1ccc(N2CCCCC2)c(Cl)c1)c1ccc(N2CCOCC2)c([N+](=O)[O-])c1	1%	-15	3.3%	-6%
COc1ccc(N2CCN(C(=O)c3cc4c(s3)-c3ccccc3OC4)CC2)cc1	-2%&-2%	.	1.7%	3%
O=C(Cc1ccccc1)NNC(=O)C1CCCC1	3%	1	-1.6%	12%
CC(C)(C)C(=O)NC1CCN(S(=O)(=O)c2ccc(C(F)(F)F)cc2)CC1	1%	0	-2.5%	5%
Cc1cc(Cl)ccc1NC(=O)CN1CCC(C(O)(c2ccccc2)c2ccccc2)CC1	17%	-10	1.9%	10%
CC1CCCC(NC(=O)CN2C(=O)NC(C)(c3ccccc3)C2=O)C1C (stereo not drawn)	.	.	0.2%	0%
CCCCC(=O)Nc1ccc(C(=O)N2CCC(C(=O)OCC)CC2)cc1	1%	-7	4.6%	13%
CCC(=O)Nc1cccc(NC(C)=O)c1	-2%	-5	.	.
O=C(Nc1cccc(C(F)(F)F)c1)c1cccc(NS(=O)(=O)c2ccc(O)c(C(=O)O)c2)c1	0%	.	-1.4%	-7%
CCOC(=O)N1CCC(N(CCN(C)C)C(=S)Nc2ccc(F)c(Cl)c2)CC1	24%	-6[21.1 µM]	0.0%	22%
CCN(C[C@H]1N[C@@](C)(C(=O)OC)[C@H]2C(=O)N(Cc3ccccc3)C(=O)[C@@H]12)S(=O)(=O)c1ccc(OC)cc1	.	.	5.4%	21%
Cc1sc2nc(COC(=O)c3cccc(S(=O)(=O)N(C)c4ccccc4)c3)[nH]c(=O)c2c1C	-6%	-11	?	-17%
COc1cc(OC)cc(C(=O)Nc2ccc(S(=O)(=O)Nc3cc(C)nc(C)n3)cc2)c1	-2%&-1%	3	.	.
COc1cccc(-n2c(C)c3c(OC)cccc(=O)c3c2C)c1	-36%	.	?	?
CN(c1nc2ccccc2nc1Cl)S(=O)(=O)c1ccccc1	-36%	.	0.0%	-5%
O=C(CSc1nc(-c2cccs2)nc2ccccc12)NC1CCS(=O)(=O)C1 (stereo not drawn)	.	.	5.9%	17%

Arranged by molar mass (largest number first): 6 of the compounds above
SMILES	miR-21 FLuc	GLA inh pH 4.5	Rango complex inh	Rango dissoc inh
Cc1sc2nc(COC(=O)c3cccc(S(=O)(=O)N(C)c4ccccc4)c3)[nH]c(=O)c2c1C	-6%	-11	?	-17%
O=C(Nc1cccc(C(F)(F)F)c1)c1cccc(NS(=O)(=O)c2ccc(O)c(C(=O)O)c2)c1	0%	.	-1.4%	-7%
CCOC(=O)N1CCC(N(CCN(C)C)C(=S)Nc2ccc(F)c(Cl)c2)CC1	24%	-6[21.1 µM]	0.0%	22%
O=C(CSc1nc(-c2cccs2)nc2ccccc12)NC1CCS(=O)(=O)C1 (stereo not drawn)	.	.	5.9%	17%
CN(c1nc2ccccc2nc1Cl)S(=O)(=O)c1ccccc1	-36%	.	0.0%	-5%
CCC(=O)Nc1cccc(NC(C)=O)c1	-2%	-5	.	.

Continuation.
SMILES	miR-21 FLuc	GLA inh pH 4.5	Rango complex inh	Rango dissoc inh
Cc1ncc(S(=O)(=O)C(C)(C)C)c(N)n1	0%	4	2.8%	-13%
CCCCc1nc2cc(C(=O)NCc3cc(C)n(C)n3)ccc2o1	-37%	.	-0.4%	0%
OCCN(CCO)CC(O)COc1ccc(Br)cc1 (stereo not drawn)	-20%&-8%	12&-2	-1.2%&-0.6%	3%&-1%
CCN(CC)C(=O)Oc1ccccc1NC(C)=O	-5%	0	-6.5%	9%
CC(=O)c1cnc(Nc2nc(C)c3ccc(C)cc3n2)nc1C	-3%	0	2.5%	1%
CCOc1ccc(CN2CCCC(CO)(Cc3ccccc3F)C2)cc1 (stereo not drawn)	14%	.	2.8%	3%
Clc1cnc(Nc2cccnc2)c(Cl)c1	-21%	.	-2.4%	9%
CC(=O)CCc1c(C)[nH]c2ccc(NC(C)=O)cc2c1=O	1%	-1	2.8%	-13%
COc1ccc(N(CC(=O)NCCOc2ccccc2)S(=O)(=O)c2ccc(C)cc2)cc1	6%	.	0.9%	-7%
O=C(CCNS(=O)(=O)c1ccc(Br)s1)NCc1ccccc1	-1%	-3[21.1 µM]	0.4%	9%
O=C(c1ccco1)N1CCN(C(=O)c2ccc(COc3ccc(Cl)cc3Cl)o2)CC1	.	.	2.8%	26%
Cc1cc(C)cc(S(=O)(=O)Cc2noc(C(=O)NCc3ccccc3)c2C(=O)NCc2ccccc2)c1	.	.	4.9%	-7%
CC(C)(C)NC(=O)C(c1ccccn1)N(C(=O)c1csnn1)C1CCCC1 (stereo not drawn)	1%	8	-1.7%	0%
CCC(C)NS(=O)(=O)c1ccc(NC(=O)C(Sc2ccccc2)c2ccccc2)cc1 (stereo not drawn)	?	-14	-0.1%	2%
CC(C)(C)c1cc(CN2CCOCC2)c(C(=O)O)o1	-4%	-7	-2.2%	17%
COc1ccc(C(=O)C2CCCN(C(=O)c3noc4c3CCCC4)C2)c(C)c1 (stereo not drawn)	-1%	8	5.7%	2%
CCOC(=O)N1CCc2c(sc(NC(=O)CN3CCOCC3)c2C#N)C1	6%	-18	-1.4%	12%
CCc1ccc(-c2cc(C(=O)Nc3c(C)n(C)n(-c4ccccc4)c3=O)c3ccccc3n2)s1	0%	-8	-4.4%	-13%
O=C(c1ccc(Cl)nc1)c1cccs1	-1%	-5	1.1%	0%
COc1ccc(-c2nc(CS(=O)(=O)CC(=O)NCc3ccccc3Br)c(C)o2)cc1	0%&2%	.	-0.5%	-9%
Cc1ccc(S(=O)(=O)Cn2cnnn2)cc1	-1%	0	1.2%	3%
CCCCN(CC)CCNS(=O)(=O)c1ccc2c(c1)oc(=O)n2C	-9%	2	1.3%	4%
Nc1cccc(C(=O)Nc2ccc(N)cc2Cl)c1	-13%	0	-0.6%	4%
CCN(CC)P(=O)(Nc1ccccc1Br)c1ccc(N(C)C)cc1NC(=O)c1ccco1 (stereo not drawn)	-3%	-5	-3.9%	-1%
CCC(=O)N(Cc1cc2cccc(C)c2[nH]c1=O)c1ccccc1OC	2%	-7	4.5%	-4%
CC#CCc1cc2ccccc2c(=O)o1	-5%	0	-2.3%	0%
N/C(=N\OC(=O)CC1CCCCC1)c1ccccc1	-22%	1	-0.1%	8%
CN1CCC(=NNc2ccc(S(=O)(=O)N3CCOCC3)cc2[N+](=O)[O-])CC1	-3%	5	-1.5%	1%
CCOc1ncccc1C(=O)NCCc1ccc(Cl)cc1	-15%	.	-3.7%	-9%
CS(=O)(=O)c1ccc2nc(NC(=O)CN3C(=O)NC4(CCCC4)C3=O)sc2c1	3%	.	0.4%	8%
Nc1c(N=Nc2cccc(Cl)c2)c(=O)[nH]n1-c1ccccc1	-10%	-3	3.0%	-6%
O=C(Cc1ccccc1F)Nc1nc(-c2cccnc2)cs1	-8%	4	?	2%
CCOC(=O)c1cn(CC(=O)Nc2ccc3c(c2)OCCO3)nn1	5%	4	-0.6%	18%
N=c1c(C(=O)NCC2CCCO2)cc2c(=O)n3ccccc3nc2n1Cc1ccccc1Cl (stereo not drawn)	3%	.	?	?
O=C(NC(=S)N1CCOCC1)c1ccccc1Cl	-1%	.	-0.1%	-1%
CCCCCCCCOC1OC(CO)C(O)C(O)C1NC(C)=O (stereo not drawn)	-4%	10	1.5%	-20%
COc1ccc(C2CC(=O)n3c(nc4ccccc43)S2)cc1OC (stereo not drawn)	0%	6	?	9%
COc1ccc(C2(c3ccc(OC)cc3)NC(=O)N(CC(=O)Nc3ccc(N4CCOCC4)cc3)C2=O)cc1	.	.	-1.4%	12%
C[C@@H](C(=O)NCc1ccccc1)[C@H]1C[C@]1(C)[C@H](NC(=O)OCc1ccccc1)c1ccccc1	20%	-12&-5	0.3%	6%
COC(=O)c1[nH]c2ccc(Cl)cc2c1NC(=O)c1ccccc1[N+](=O)[O-]	-12%	2	3.6%	-3%
N#Cc1cc2c(nc1SCC(=O)Nc1sc3c(c1C#N)CCC3)CCCCCC2	0%	-12	?	?
COCCC(=O)N1CCC(Oc2ccc(C(=O)NCCc3cnn(C)c3)cc2)CC1	0%	.	0.3%	-11%
Cn1c(SCC(=O)NCc2ccco2)nnc1-c1c[nH]c2ccccc12	-1%	4	-1.2%	1%
CCOC(=O)c1c(NC(=O)c2nn(CC)cc2Br)sc(C)c1C	-6%	25	-1.5%	1%
COCCNC(=O)C(c1cccs1)N(CCc1ccccc1)C(=O)Cn1nnc2ccccc21 (stereo not drawn)	-2%	3	0.8%	0%
Cc1ccc(C)c(OCCCN2CCc3ccccc3C2)c1	-1%	.	1.3%	-17%
O=C1/C(=C/c2ccc([N+](=O)[O-])cc2)C=C(c2ccccc2)N1c1ccc(O)cc1	3%	-7	0.0%	-2%
CN(C)/C=C/C(=O)c1cccc(Oc2ncccn2)c1	-6%	-22	-1.7%	1%
CCOc1ccccc1NC(=O)c1ccc(Cl)c(NC(=O)CC(c2ccccc2)c2ccccc2)c1	-1%	-10	-2.9%	-7%
COc1ccc(CN2CCOCC2)cc1Br	-3%	12	0.2%	0%
Next results:
SMILES	miR-21 FLuc	GLA inh pH 4.5	Rango complex inh	Rango dissoc inh
COc1ccc(-c2csc(Nc3cccnc3)n2)cc1OC	-36%	2	0.0%	-6%
O=C(CSc1nnc(-c2c[nH]c3ccccc23)n1-c1ccc(F)cc1)NCc1ccco1	-35%	0	-0.2%	1%
O=C(Cn1cc2c(n1)CCCCC2)Nc1c(F)cc(F)cc1Br	-6%	-6	-1.1%	-17%
COc1ccc(NC(=O)COc2ccccc2F)cc1S(=O)(=O)N1CCCCC1	5%	.	2.4%	-3%
COc1ccc(-n2c(SCc3ccc(C#N)cc3)nnc2-c2ccccn2)cc1	-15%	6	0.1%	10%
O=C(NNC(=O)C1CCCO1)c1ccc(Cl)cc1 (stereo not drawn)	-6%	-1	-0.1%	12%
O=C(CN1C(=O)CCC1=O)c1ccc(-c2ccccc2)cc1	-51%	-3	-1.3%	1%
CCOC(=O)c1cc(CC)sc1NC(=O)COC(=O)C1CCC1	-7%	.	0.2%	17%
C[C@]12CCC(O)CC1CCC1C2CC[C@]2(C)C(c3cc(C(F)(F)F)n[nH]3)CCC12 (stereo partly drawn)	-1%	-11	-0.7%	-13%
CN(Cc1ccccc1)C(=O)[C@@H]1CCCN1S(=O)(=O)c1ccc(Cl)cc1	0%	.	-1.8%	11%

Assay outcomes deposited in PubChem BioAssay by National Center for Advancing Translational Sciences (NCATS).
